GIV Gai3 FP: inhibitors of GIV peptide binding to Galpha-i3, primary screen, biochemical, fluorescence polarization, FITC-GIV GBA peptide, rat Galphai3; Guanine nucleotide-binding protein G(i) subunit alpha-3 (Rattus norvegicus), P08753; 90 min; active compounds read low; scaled: aluminum fluoride 0%, vehicle 100%; percent of control (FP), % (test concentration not listed); hit rate 0.42% among 210,000; AID 1224905, 2016;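 active = replicate mean at 85% of control or lower, very high polarization wells dropped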;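 also: lower values mean more displacement of the GIV peptide from Galpha-i3; wells of about 15 µL received 100 nL stock; the first replicate is given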
Target sequence (P08753 whole entry, looked up): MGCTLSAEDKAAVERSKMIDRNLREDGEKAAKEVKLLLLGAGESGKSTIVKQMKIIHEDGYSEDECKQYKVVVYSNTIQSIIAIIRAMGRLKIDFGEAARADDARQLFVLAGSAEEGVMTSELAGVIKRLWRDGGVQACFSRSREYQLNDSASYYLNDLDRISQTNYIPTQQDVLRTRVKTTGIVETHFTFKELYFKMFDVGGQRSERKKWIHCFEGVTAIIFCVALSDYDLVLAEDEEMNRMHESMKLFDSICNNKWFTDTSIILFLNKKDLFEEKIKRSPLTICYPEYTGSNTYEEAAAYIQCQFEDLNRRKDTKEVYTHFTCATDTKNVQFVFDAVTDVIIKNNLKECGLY
Sa growth inh: S. aureus growth inhibition at 42 and 30 °C, primary screen, LtaS inhibitor project, RN4220, two temperatures; OD600, 20 h, 42 °C; active compounds read low; relative growth, % (test concentration not listed); hit rate 0.53% among 170,000; AID 720641, 2013;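 active = growth at 42 °C up to 50% and 20 or more points under that at 30 °C, or under 10% at both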;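 also: 300 nL library stock went into each well; scaled to the means of positive and negative controls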
HCMV UL50-53 inh: inhibitors of HCMV UL50-UL53 interaction, biochemical, HTRF | HCMV UL50-UL53 nuclear egress complex (human cytomegalovirus) | normalized percent inhibition | inhibition, % (test concentration not listed) | hit rate 0.15% among 190,000 | AID 1918969, 2023;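 active = both replicates at 50% or more, plus weaker picks with an unusually low signal ratio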;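 also: stock transfer was 100 nL into about 20 µL; 0% = negative control wells and 100% = wells with untagged competitor protein; inactives centre near -12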
Sa growth inh second temp: also measured in Sa growth inh; calls as there; relative growth, %; measured here: growth at 30 °C;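 optical density after 20 h as mean of two plates; 100% = untreated growth and lower means inhibition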
An asterisk follows results filed as active.

What do the screens show for `CN(C)c1cccc(C(=O)N(Cc2ccc3c(c2)OCO3)C2CCCC2)c1`?
Sa growth inh: 113; HCMV UL50-53 inh: 14; Sa growth inh second temp: 98

How did Cc1ccc(C(C(=O)NC2CCCCC2)N(C)Cc2ccccc2)cc1 (configuration not stated) do in these assays?
GIV Gai3 FP: 98; Sa growth inh: 85; HCMV UL50-53 inh: -2; Sa growth inh second temp: 90

Results for CCCCCC12CCC(O)(CC1)CC2 ?
GIV Gai3 FP: 99; Sa growth inh: 100; HCMV UL50-53 inh: -8; Sa growth inh second temp: 105

How did Cc1cc2c(c(=O)o1)C1(C(=O)Nc3ccc(Br)cc31)C(C#N)=C(N)O2 (configuration not stated) do in these assays?
GIV Gai3 FP: 103; HCMV UL50-53 inh: -12

What do the screens show for `Cc1ccc(Cl)cc1N1CCN(C(=O)c2cc3c(=O)oc4ccccc4c3s2)CC1`?
GIV Gai3 FP: 107; Sa growth inh: 89; HCMV UL50-53 inh: -24; Sa growth inh second temp: 93

What do the screens show for `CC(C)C(=O)Nc1cccc(Cl)c1Cl`?
GIV Gai3 FP: 106; Sa growth inh: 103; HCMV UL50-53 inh: -4; Sa growth inh second temp: 107

How did C=CCn1c(SCC(=O)Nc2ccc(C)cc2)nc2sc3c(c2c1=O)CCCC3 do in these assays?
GIV Gai3 FP: 102; Sa growth inh: 121; Sa growth inh second temp: 84

Results for CC(=O)Oc1cnc2ccc(C)cc2c1 ?
GIV Gai3 FP: 95; Sa growth inh: 95; HCMV UL50-53 inh: -64; Sa growth inh second temp: 92

How did O=C(NCc1cccnc1)C1c2ccccc2C(=O)N1Cc1ccco1 (configuration not stated) do in these assays?
GIV Gai3 FP: 120; Sa growth inh: 96; HCMV UL50-53 inh: -10; Sa growth inh second temp: 101

Results for O=c1cc(N2CCc3ccccc3C2)[nH]c(=O)n1-c1ccccc1Cl ?
GIV Gai3 FP: 103; Sa growth inh: 106; HCMV UL50-53 inh: 4; Sa growth inh second temp: 102

What do the screens show for `CCOc1ccc2nc(SCC(=O)N3CCOCC3)sc2c1`?
Sa growth inh: 133; HCMV UL50-53 inh: 0; Sa growth inh second temp: 75

Results for COC(=O)c1nnn(-c2nonc2N)c1CSc1nc2ccc([N+](=O)[O-])cc2[nH]1 ?
GIV Gai3 FP: 105; HCMV UL50-53 inh: -38

Results for Cc1ccc(NC(=O)Cn2c(=O)oc3cc(S(=O)(=O)NCc4ccccc4)ccc32)cc1 ?
GIV Gai3 FP: 104; Sa growth inh: 98; HCMV UL50-53 inh: -28; Sa growth inh second temp: 86

How did COc1ccc(-c2cc(C(=O)NCCc3ccccc3)c3c(-c4ccccc4)[nH]nc3n2)cc1 do in these assays?
GIV Gai3 FP: 100; Sa growth inh: 93; Sa growth inh second temp: 85

How did CC(CN1CCCC1)OC(=O)c1ccccc1Br (configuration not stated) do in these assays?
GIV Gai3 FP: 102; Sa growth inh: 110; HCMV UL50-53 inh: -24; Sa growth inh second temp: 88

Results for CN1C(=O)NC(NC(=O)c2ccccc2)(C(F)(F)F)C1=O (configuration not stated) ?
GIV Gai3 FP: 101; Sa growth inh: 99; HCMV UL50-53 inh: 5; Sa growth inh second temp: 102

What do the screens show for `O=C(Nc1c[nH]c(=O)[nH]c1=O)c1cccc(N2C(=O)CCC2=O)c1`?
GIV Gai3 FP: 101; Sa growth inh: 97; HCMV UL50-53 inh: 9; Sa growth inh second temp: 97

What do the screens show for `CCOc1cccc(NC(=O)C2CC(=O)N(C)C(=Nc3ccc(Br)cc3)S2)c1` (configuration not stated)?
GIV Gai3 FP: 101; HCMV UL50-53 inh: -19

What do the screens show for `CC(C)OC(=O)COc1ccc2ccc(=O)oc2c1`?
Sa growth inh: 91; HCMV UL50-53 inh: -2; Sa growth inh second temp: 92

How did CN(Cc1cccc(Cl)c1)C1CCN(C(=O)NCc2ccccc2)CC1 do in these assays?
GIV Gai3 FP: 97; Sa growth inh: 92; HCMV UL50-53 inh: 0; Sa growth inh second temp: 94

What do the screens show for `CC(=O)NC(Cc1c[nH]c2ccccc12)C(=O)N1CCC(=O)CC1` (configuration not stated)?
Sa growth inh: 96; HCMV UL50-53 inh: 6; Sa growth inh second temp: 84

How did COc1ccc(CCNC(=O)CSc2nc3c(cnn3-c3ccc(Cl)cc3)c(=O)[nH]2)cc1OC do in these assays?
GIV Gai3 FP: 102; Sa growth inh: 102; HCMV UL50-53 inh: -17; Sa growth inh second temp: 90

Results for Cc1nnc(C)n1/N=C/c1ccc(Cl)c(Cl)c1 ?
Sa growth inh: 92; HCMV UL50-53 inh: 13; Sa growth inh second temp: 101

How did CCc1ccc(NC(=O)CN(C(=O)N2CCN(CC)CC2)S(=O)(=O)c2ccc(C)cc2)cc1 do in these assays?
GIV Gai3 FP: 96; Sa growth inh: 95; HCMV UL50-53 inh: -24; Sa growth inh second temp: 88

Results for CCOC(=O)c1cc2c(=O)n3ccccc3nc2n(Cc2ccco2)c1=NC(=O)c1ccc(OCC)cc1 ?
GIV Gai3 FP: 106; Sa growth inh: 89; HCMV UL50-53 inh: -19; Sa growth inh second temp: 85

How did Cc1cc2c(cc1S(=O)(=O)N1CC(C)CC(C)C1)OCC(=O)N2 (configuration not stated) do in these assays?
GIV Gai3 FP: 102; Sa growth inh: 104; Sa growth inh second temp: 88

What do the screens show for `CCOC(=O)N1CCC(n2c(SCC(=O)N3CCCCCC3)nc3ccccc3c2=O)CC1`?
GIV Gai3 FP: 99; Sa growth inh: 99; HCMV UL50-53 inh: 3; Sa growth inh second temp: 81

What do the screens show for `COc1cc(C(C)(C)C)c(OC)cc1C(C)(C)C`?
GIV Gai3 FP: 107; Sa growth inh: 91; HCMV UL50-53 inh: -18; Sa growth inh second temp: 87

Results for O=c1c(Cc2ccccc2)c(O)c2cccc3c4ccccc4n1c23 ?
GIV Gai3 FP: 105; Sa growth inh: 49; HCMV UL50-53 inh: -37; Sa growth inh second temp: 21

Results for CC(C(=O)N=Nc1c(O)[nH]c2ccccc12)n1cnc2ccccc2c1=O (configuration not stated) ?
GIV Gai3 FP: 103; Sa growth inh: 94; HCMV UL50-53 inh: -121; Sa growth inh second temp: 80

What do the screens show for `CCCN(CCC)C(=O)CC(c1ccccc1)c1ccccc1O` (configuration not stated)?
GIV Gai3 FP: 99; Sa growth inh: 101; HCMV UL50-53 inh: 0; Sa growth inh second temp: 83

What do the screens show for `O=c1[nH]c2ccc(NCc3ccc(-c4ccc(Cl)cc4)o3)cc2[nH]1`?
GIV Gai3 FP: 106; Sa growth inh: 90; HCMV UL50-53 inh: 5; Sa growth inh second temp: 91

What do the screens show for `CCCN(CCC)CN1C(=O)S/C(=C/c2ccc(N(CC)CC)cc2)C1=O`?
GIV Gai3 FP: 131; Sa growth inh: 94; HCMV UL50-53 inh: -85; Sa growth inh second temp: 69

What do the screens show for `O=C1C=C(c2ccccc2)C(O)(c2ccccc2)C1` (configuration not stated)?
Sa growth inh: 128; HCMV UL50-53 inh: -33; Sa growth inh second temp: 85

What do the screens show for `COc1cc(C(=O)n2nc(C)c(Sc3ccc(Cl)cc3)c2C)cc(OC)c1OC`?
GIV Gai3 FP: 99; Sa growth inh: 105; HCMV UL50-53 inh: -12; Sa growth inh second temp: 91

What do the screens show for `CCCn1nnnc1NCc1ccc(F)cc1`?
GIV Gai3 FP: 96; Sa growth inh: 83; Sa growth inh second temp: 89

What do the screens show for `O=C(Sc1ccc(Oc2ccc(SC(=O)c3ccco3)cc2)cc1)c1ccco1`?
GIV Gai3 FP: 99; Sa growth inh: 91; Sa growth inh second temp: 85

What do the screens show for `O=C(Cn1cccc1C(=O)c1ccccc1)NCc1ccc(F)cc1`?
GIV Gai3 FP: 103; Sa growth inh: 96; HCMV UL50-53 inh: -24; Sa growth inh second temp: 86

How did Cc1nc(N2CCN(C)CC2)c2c(C)c(C(=O)N3CCCC(C)C3)sc2n1 (configuration not stated) do in these assays?
GIV Gai3 FP: 99; HCMV UL50-53 inh: -18

What do the screens show for `Cc1c(C)n(-c2ccccc2)c2ncn(CCC(=O)NC3CCCC3)c(=O)c12`?
GIV Gai3 FP: 101; HCMV UL50-53 inh: -9

How did N#Cc1cccc(NC(=S)NC(=O)c2cccs2)c1 do in these assays?
GIV Gai3 FP: 99; Sa growth inh: 112; HCMV UL50-53 inh: 8; Sa growth inh second temp: 102

How did CCCOc1ccc(-c2nc(NCCN)c3ccccc3n2)cc1 do in these assays?
GIV Gai3 FP: 103; Sa growth inh: 83; HCMV UL50-53 inh: -3; Sa growth inh second temp: 86

How did CCN(C(=O)Cn1c(=O)n(CCCS(=O)(=O)C2CCCCC2)c(=O)c2ccccc21)c1cccc(C)c1 do in these assays?
GIV Gai3 FP: 106; Sa growth inh: 100; HCMV UL50-53 inh: 6; Sa growth inh second temp: 99

What do the screens show for `CN1C(c2ccccc2)CC(=O)CC1c1ccccc1` (configuration not stated)?
Sa growth inh: 94; HCMV UL50-53 inh: -13; Sa growth inh second temp: 84

Results for COc1ccc(NC(=O)c2ccc(CSc3ccccn3)cc2)cc1 ?
Sa growth inh: 84; HCMV UL50-53 inh: 4; Sa growth inh second temp: 84

Of the compounds above, these contain an aryl thioether with sulfur outside any ring.
How did C=CCn1c(SCC(=O)Nc2ccc(C)cc2)nc2sc3c(c2c1=O)CCCC3 do in these assays?
GIV Gai3 FP: 102; Sa growth inh: 121; Sa growth inh second temp: 84

What do the screens show for `CCOc1ccc2nc(SCC(=O)N3CCOCC3)sc2c1`?
Sa growth inh: 133; HCMV UL50-53 inh: 0; Sa growth inh second temp: 75

Results for COC(=O)c1nnn(-c2nonc2N)c1CSc1nc2ccc([N+](=O)[O-])cc2[nH]1 ?
GIV Gai3 FP: 105; HCMV UL50-53 inh: -38

How did COc1ccc(CCNC(=O)CSc2nc3c(cnn3-c3ccc(Cl)cc3)c(=O)[nH]2)cc1OC do in these assays?
GIV Gai3 FP: 102; Sa growth inh: 102; HCMV UL50-53 inh: -17; Sa growth inh second temp: 90

What do the screens show for `CCOC(=O)N1CCC(n2c(SCC(=O)N3CCCCCC3)nc3ccccc3c2=O)CC1`?
GIV Gai3 FP: 99; Sa growth inh: 99; HCMV UL50-53 inh: 3; Sa growth inh second temp: 81

What do the screens show for `COc1cc(C(=O)n2nc(C)c(Sc3ccc(Cl)cc3)c2C)cc(OC)c1OC`?
GIV Gai3 FP: 99; Sa growth inh: 105; HCMV UL50-53 inh: -12; Sa growth inh second temp: 91

Results for COc1ccc(NC(=O)c2ccc(CSc3ccccn3)cc2)cc1 ?
Sa growth inh: 84; HCMV UL50-53 inh: 4; Sa growth inh second temp: 84

Other results:
What do the screens show for `Cc1c(-c2ccccc2)nc2c(Cl)cccc2c1C(=O)OCC(=O)c1ccc(F)cc1`?
GIV Gai3 FP: 100; Sa growth inh: 117; HCMV UL50-53 inh: -21; Sa growth inh second temp: 89

What do the screens show for `COc1cccc(NCc2cccn2-c2nnc(N3CCN(c4ccccc4)CC3)s2)c1`?
GIV Gai3 FP: 101; HCMV UL50-53 inh: -9

Results for C=CCN(C(=O)CSc1nncn2c1cc1occc12)c1ccccc1 ?
GIV Gai3 FP: 117; Sa growth inh: 89; HCMV UL50-53 inh: -58; Sa growth inh second temp: 72

Results for O=C(O)c1ncoc1-c1cccc(Cl)c1 ?
GIV Gai3 FP: 106; Sa growth inh: 95; HCMV UL50-53 inh: -38; Sa growth inh second temp: 93

What do the screens show for `COc1ccc(OC)c(CC2C(=O)Nc3ccc(Br)cc32)c1` (configuration not stated)?
GIV Gai3 FP: 101; Sa growth inh: 104; HCMV UL50-53 inh: 9; Sa growth inh second temp: 82

Results for CCc1c(C)sc(NC(=O)c2cc(-c3ccc(OC)cc3)on2)c1C#N ?
GIV Gai3 FP: 104; Sa growth inh: 104; HCMV UL50-53 inh: -10; Sa growth inh second temp: 93

How did O=C(COCC(=O)c1ccccc1)Sc1nc2ccccc2s1 do in these assays?
Sa growth inh: 96; HCMV UL50-53 inh: -10; Sa growth inh second temp: 98

Results for Cc1ccc(CCNC(=O)CCCn2c(=O)c3ccccc3n(CC(=O)Nc3cc(Cl)ccc3C)c2=O)cc1 ?
GIV Gai3 FP: 109; Sa growth inh: 102; HCMV UL50-53 inh: -38; Sa growth inh second temp: 106

What do the screens show for `O=C(Nc1ccc(F)c(F)c1)C1Nc2ccccc2S(=O)(=O)N1` (configuration not stated)?
GIV Gai3 FP: 105; HCMV UL50-53 inh: -24

How did CCNC(=O)c1cccc(OCc2c(C)noc2C)c1 do in these assays?
Sa growth inh: 100; HCMV UL50-53 inh: -26; Sa growth inh second temp: 92

How did COc1cccc(N2CCN(S(=O)(=O)c3ccc(-c4cnc(C5CC5)o4)cc3)CC2)c1 do in these assays?
GIV Gai3 FP: 98; Sa growth inh: 105; Sa growth inh second temp: 95

How did CCOC(=O)Cc1csc(NC(=O)CSc2nc(=O)[nH]c3c2CCC3)n1 do in these assays?
GIV Gai3 FP: 102; Sa growth inh: 94; HCMV UL50-53 inh: -12; Sa growth inh second temp: 88

From PubChem BioAssay
